VDR inhibitor = vitamin D3 receptor (human) inhibition; AID 504847; VDR-SRC2-3 peptide fluorescence polarization, 2 h; 400,000 compounds, 0.93% hits; Potency, µM, without a hit: max response, negative = inhibition, hits mostly inhibitors; active means well fitted inhibition curve with a large enough effect; inconclusive means small, poorly fitted or top-dose-only effect, or another doubt; inactive means no such curve, though single readings can be large or run the other way; further: series mostly up to about 120 µM
Target sequence (P11473 whole entry, looked up): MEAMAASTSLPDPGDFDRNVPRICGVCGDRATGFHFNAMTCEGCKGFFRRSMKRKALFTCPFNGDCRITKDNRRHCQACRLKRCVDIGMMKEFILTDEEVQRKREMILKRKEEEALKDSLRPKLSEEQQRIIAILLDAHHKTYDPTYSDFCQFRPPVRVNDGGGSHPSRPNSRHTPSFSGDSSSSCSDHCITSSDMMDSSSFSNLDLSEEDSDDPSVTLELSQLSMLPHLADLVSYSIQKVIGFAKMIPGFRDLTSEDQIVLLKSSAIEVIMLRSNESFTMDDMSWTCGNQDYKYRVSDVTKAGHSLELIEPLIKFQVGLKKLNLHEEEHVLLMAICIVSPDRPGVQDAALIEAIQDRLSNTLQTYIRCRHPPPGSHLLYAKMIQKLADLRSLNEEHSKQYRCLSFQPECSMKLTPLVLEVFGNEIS
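Two reagent solutions held at 4 deg C in the dark were dispensed, compounds pinned at 23 nl, and the mixture incubated 2 h at room temperature. Read-out: fluorescence polarization of VDR–SRC2-3 peptide binding.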
* = called active by the depositor; u = inconclusive; & = joins results of further samples. On the % scale 0 is the no-effect control and ±100 the full control effect; potency means the concentration at half of the fitted maximal effect.

SMILES | VDR inhibitor
CC1C(=O)N(S(=O)(=O)c2ccc([N+](=O)[O-])cc2)[C@H]1c1ccc2ccccc2c1 (some centres undefined) | u
COc1ccc(Br)cc1CNc1ccc(N2CCOCC2)cc1 | -19%
Cc1cc2c(cc1C)CN(c1ccccc1)C2 | -1%
Cc1cccc(-n2nnc3cnn(C)c3c2=O)c1 | 11%
Cc1cc(=O)[nH]c2c(N=Nc3ccc(O)cc3)c(N)nn12 | 7%
O=C(Nc1ccc2c(c1)OCCO2)c1cccc(S(=O)(=O)N2CCOCC2)c1 | -21%
COc1cc([N+](=O)[O-])cc(/C=N/NC(=O)c2cccnc2)c1O | -19%
CC(C(=O)N(C)C1CCCCC1)N1CCC(C(N)=O)CC1 (centres undefined) | 8%
COc1cccc(N2CCN(c3ccc4nnc(CCC(=O)Nc5cc(C)ccn5)n4n3)CC2)c1 | -14%
Cc1noc(NS(=O)(=O)c2ccc(NC(=O)C(Cl)(Cl)Cl)cc2)c1C | -19%
COC(=O)CSc1nnc(Cc2cc(=O)[nH]c(=O)[nH]2)n1-c1cccc(OC)c1 | -16%
O=C(CSc1nc2ccccc2nc1Cc1ccccc1)Nc1ccc2c(c1)OCO2 | 6%
COc1ccc(NC(=O)COc2nsnc2N2CCOCC2)cc1 | -22%
O=C(CNC(=S)N(Cc1ccc(F)cc1)C1CCCCC1)NCCN1CCOCC1 | 7%
COc1ccccc1NC(=O)Nc1ccccc1N1CCOCC1 | 5%
O=C(CCN1C(=O)C2C3C=CC(C3)C2C1=O)N1CCN(c2cccc(Cl)c2)CC1 (centres undefined) | 1%
NC(=O)NNc1cccc(Cl)n1 | -5%
COc1ccc(C(=O)NCCSC2CCCCC2)cc1 | -12%
OCCNCc1cc(Br)ccc1OCc1ccc(Cl)cc1Cl | 17%
Cc1ccccc1N1CCN(C2CCCN(C(=O)c3ocnc3C)C2)CC1 (centres undefined) | -20%
Cc1cccc(NC(=O)Cn2cnc3c(oc4nc5c(cc43)COC(C)(C)C5)c2=O)c1 | -2%
CCOC(=O)c1cc2c(ccn2C)n1CC(=O)N(C)C | -22%
O=C(NCC(c1ccco1)N1CCc2ccccc2C1)c1cccc([N+](=O)[O-])c1 (centres undefined) | -19%
Cc1cc(=O)n2[nH]c(NCc3ccc(F)cc3)nc2n1 | 13%
O=C(COC(=O)CCc1nc2ccccc2c(=O)[nH]1)Nc1ccc(Cl)cn1 | u

The listing continues.
SMILES | VDR inhibitor
Cc1ccc(OCC(=O)OCC(=O)c2cccc([N+](=O)[O-])c2)cc1C | -3%
CCOC(=O)c1c(C)[nH]c(CCC(=O)Nc2ccccc2C(=O)OC)c1C | 20%
Cc1ccc(NC(=O)/C(=C\c2cccc(Br)c2)NC(=O)c2ccco2)cc1 | -9%
COC(=O)c1ccccc1NC1CC(=O)N(c2c(C)cccc2C)C1=O (centres undefined) | 0%
O=C(/C=C/c1ccc(OCc2cccc(Cl)c2)cc1)N1CCOCC1 | 4%
CCn1ncc(C2=NOC(C(=O)Nc3cccnc3)C2)c1C (centres undefined) | -6%
CCONC(=O)Nc1ccccc1 | -2%
Cc1ccccc1CNC(=O)C1CCC(=O)N(C2CCCCCC2)C1 (centres undefined) | 0%
Cc1cc(C)c2c3c(sc2n1)C(=O)N(c1ccccc1C)CC(=O)N3 | 3%
COc1cc(C2C(C(=O)c3ccc(C)o3)=C(O)C(=O)N2CCc2ccccc2)ccc1O (centres undefined) | -5%
O=C(c1ccccc1)C1C(=O)c2ccccc2C1=O | -3%
CCCn1cc(CN2CCC(n3nccc3NC(=O)C(OC)c3ccccc3)CC2)c(C)n1 (centres undefined) | -3%
Cc1cc[n+](C2=C([O-])c3ccccc3C(=O)/C2=N\S(=O)(=O)c2cccs2)cc1C | 28%
COc1ccccc1C(=O)Nc1ccc(OC(C)C(=O)N2CCOCC2)cc1 (centres undefined) | -15%
Cc1ccc2c(c1)N(CC(=O)NC1CCC(C)CC1)C(=O)c1cccnc1O2 (centres undefined) | 4%
Cc1ccc(NC(=O)c2cc3nc(C)cc(C)n3n2)cc1 | -7%
CCN(C(=O)CN1CCN(c2ccccc2OC)CC1)c1c(N)n(Cc2ccccc2)c(=O)[nH]c1=O | -4%
COc1ccc(/C=C/C(=O)c2c(O)cc(C)oc2=O)c(OC)c1 | 0%
NC(=O)NOCc1ccc(F)cc1Cl | -11%
CCOc1ccc(NC(=O)CCc2ccc(C)o2)cc1 | -13%
Cc1noc(C)c1-c1ccc2ncnc(NCc3cccnc3)c2c1 | -19%
COc1cccc(N2CCN(C(=O)c3[nH]c(C)c(C(C)=O)c3C)CC2)c1 | -1%
C=CCNC(=O)Nc1cc(Cl)ccc1OC | -10%
O=C(NCc1cccc(C(F)(F)F)c1)c1ccc[nH]1 | 6%
CCOc1ccc(-c2csc(-c3c(N)c(C(=O)c4ccc5c(c4)OCO5)n4ccccc34)n2)cc1 | 14%

Rewritten as a markdown table: four of the compounds above
| canonical_smiles | VDR inhibitor |
| --- | --- |
| O=C(NCc1cccc(C(F)(F)F)c1)c1ccc[nH]1 | 6% |
| CCCn1cc(CN2CCC(n3nccc3NC(=O)C(OC)c3ccccc3)CC2)c(C)n1 (centres undefined) | -3% |
| COc1ccc(/C=C/C(=O)c2c(O)cc(C)oc2=O)c(OC)c1 | 0% |
| Cc1ccc(NC(=O)c2cc3nc(C)cc(C)n3n2)cc1 | -7% |

Next section
SMILES | VDR inhibitor
COc1ccc(/C=C/C(=O)Nc2ccc(-n3nncc3-c3ccc(OC)c(OC)c3)cc2)cc1OC | -1%
Cn1c(=O)c2c(nc(N3CCN(Cc4ccccc4)CC3)n2CC(=O)c2ccccc2)n(C)c1=O | 4%
O=C(C1CCC1)N1CCN(c2ccccc2)CC1 | -10%
CC(C)[C@H](NC(=O)c1ccccc1)C(=O)Nc1ccc2c(c1)OCO2 | -1%
CCN(CCNC(=O)C1CCN(Cc2nc(-c3cccc(Cl)c3)oc2C)CC1)c1ccccc1 | -10%
CCOc1ccc(-n2c(O)c(/C=N/c3ccnn3Cc3ccncc3)c3ccccc3c2=O)cc1 | -5%
Cc1cc(Cl)ccc1NNC(N)=S | u
COc1ccc(S(=O)(=O)N2CCC(C(=O)N(CC(C)C)C3CCS(=O)(=O)C3)CC2)cc1OC (centres undefined) | 2%
S=c1[nH]nc(-c2ccco2)n1/N=C/c1c(Cl)cccc1Cl | 14%
COc1ccccc1-n1nnnc1SCC(=O)NC1CC1 | 0%
COC(=O)c1ccc(N(C(=O)CNC(=O)c2ccco2)C(C(=O)NC2CCCC2)c2ccco2)cc1 (centres undefined) | -16%
Cn1c(=O)c2c(SCC(=O)N3CCOCC3)nc(-c3ccccc3Cl)nc2n(C)c1=O | 13%
CC(C)C(=O)Nc1ccc(Sc2ccc(F)cc2)cc1 | -2%
COc1ccc(C(CC(=O)O)NC(=O)c2sc3ccccc3c2Cl)cc1 (centres undefined) | -3%
COc1ccc(/C=C2\SC(=O)N(CC(=O)Nc3cccc(C)c3)C2=O)cc1O | 13%
COc1ccc(-c2noc(-c3ccccc3C(=O)NCc3ccco3)n2)cc1OC | -5%
COc1ccc(-c2csc3ncnc(N4CCN(c5ccccc5)CC4)c23)cc1 | 0%
CCOc1cc(/C=C2/N=C(C)C(C(=O)OC)=C2O)ccc1O | -16%
COCCN1C(=O)c2oc3c(C)cc(C)cc3c(=O)c2C1c1cccc(O)c1 (centres undefined) | -7%
CN1CC2(Cc3cc([N+](=O)[O-])ccc31)C(=O)OC(C)(C)OC2=O | -13%
CC(=O)c1cccc(NC(=O)CCN2C(=O)C3CC=CCC3C2=O)c1 (centres undefined) | 6%
CCC(=O)c1ccc(OCC(=O)OCC(=O)Nc2c(C)n(C)n(-c3ccccc3)c2=O)cc1 | -18%
Cc1nnc(SCC(=O)NC2CCC(C)CC2)s1 (centres undefined) | -17%
O=C(NCC(=O)N1CCN(S(=O)(=O)c2ccccc2F)CC1)c1ccc(Br)o1 | 8%
COC(=O)CN1C(=O)C2(C(C#N)=C(N)Oc3ccccc32)C2=C1CC(C)(C)CC2=O (centres undefined) | -11%

5 entries already listed, sorted by the number in VDR inhibitor, falling.
SMILES | VDR inhibitor
Cc1cc[n+](C2=C([O-])c3ccccc3C(=O)/C2=N\S(=O)(=O)c2cccs2)cc1C | 28%
O=C(CSc1nc2ccccc2nc1Cc1ccccc1)Nc1ccc2c(c1)OCO2 | 6%
COc1ccc(S(=O)(=O)N2CCC(C(=O)N(CC(C)C)C3CCS(=O)(=O)C3)CC2)cc1OC (centres undefined) | 2%
NC(=O)NOCc1ccc(F)cc1Cl | -11%
COC(=O)c1ccc(N(C(=O)CNC(=O)c2ccco2)C(C(=O)NC2CCCC2)c2ccco2)cc1 (centres undefined) | -16%

At a glance, 3 of the compounds above:
SMILES | VDR inhibitor
CCOc1cc(/C=C2/N=C(C)C(C(=O)OC)=C2O)ccc1O | -16%
COCCN1C(=O)c2oc3c(C)cc(C)cc3c(=O)c2C1c1cccc(O)c1 (centres undefined) | -7%
CN1CC2(Cc3cc([N+](=O)[O-])ccc31)C(=O)OC(C)(C)OC2=O | -13%

A different layout for part of the listing above:
| Structure | VDR inhibitor |
| --- | --- |
| Cc1cc(Cl)ccc1NNC(N)=S | u |
| COc1ccc(-c2csc3ncnc(N4CCN(c5ccccc5)CC4)c23)cc1 | 0% |
| CC(C)C(=O)Nc1ccc(Sc2ccc(F)cc2)cc1 | -2% |

(list continues)
SMILES | VDR inhibitor
O=C(NCc1ccccc1Cl)c1nnc(Cc2ccc(Cl)cc2)o1 | -5%
Cc1ccc(NC(=O)CN2C(=O)CCSc3ccc(S(=O)(=O)N4CCCC4)cc32)cc1 | -10%&4%
CCOC(=O)c1sc(=S)n(-c2ccc(OC)cc2)c1N | 9%
Cc1cc(C(=O)Nc2ccc(Nc3ccccc3)cc2)ccc1[N+](=O)[O-] | 25µM*
Clc1ccc(-c2nc(NCCN3CCOCC3)c3ccccc3n2)cc1 | 2%
Cc1ccccc1Cn1c(=O)n(C)c(=O)c2sccc21 | u
COc1ccc(NC(=O)CN2C(=O)C(C)SC(C)C2=O)cc1 (centres undefined) | 17%
CC(NC(=O)C(Cc1ccccc1)N1C(=O)C2C3CCC(C3)C2C1=O)c1ccccc1 (centres undefined) | 10%
Cc1ccccc1OCCn1c(-c2ccc(Cl)cc2)nc2ccccc2c1=O | -15%
C=CCn1c(SCC(=O)Nc2nnc(C)s2)nnc1-c1cccnc1 | -3%
Cc1cccc(C(=O)N[C@H](C(=O)OCC(=O)NC(=O)c2cccn2C)C(C)C)c1 | u
CCOc1ccccc1C(=O)OCC(=O)Nc1ncc(C(F)(F)F)cc1Cl | -3%
COc1ccc(Oc2ccc(/C=C/C(=O)c3ccc(O)cc3)cc2[N+](=O)[O-])cc1 | u
COc1ccc(-c2csc(N(CCCN(C)C)C(=O)c3ccc(C(C)(C)C)cc3)n2)cc1 | -13%
CNc1cc(=O)n(C)c(=O)n1-c1ccccc1 | -14%
Cc1ccc(/C=C/C(=O)Nc2ccc([N+](=O)[O-])c(NC(=O)/C=C/c3ccc(C)o3)c2)o1 | u
COc1ccc(Cn2c(=O)[nH]c3cc(C(=O)N4CCN(c5cc(C)ccc5C)CC4)ccc3c2=O)cc1 | -1%
COc1ccc(N(C(=O)CNC(=O)c2ccco2)C(C(=O)NC2CCCC2)c2ccco2)cc1 (centres undefined) | 1%
Cc1noc(C)c1COC(=O)c1ccc2c(c1)S(=O)(=O)c1ccccc1C2=O | -19%
Cc1ccc(N(C(=O)c2snc(C(N)=O)c2N)C(CC(C)C)C(=O)NC2CCCC2)cc1 (centres undefined) | 10%
Cc1cccc(NC(=O)CSc2nsc(SCC(=O)Nc3cccc(C)c3)c2C#N)c1 | 8%
Cc1ccc(NC(=O)Cc2ccc(-n3cccc3)cc2)c(C)c1 | -2%
O=C(c1ccccc1)N1CC(COc2ccccc2)OC(c2ccco2)O1 (centres undefined) | -17%
CCC(C)(C)n1nnnc1C(c1ccc(F)cc1)N1CCN(C(=O)c2ccco2)CC1 (centres undefined) | 6%
O=C(OC(c1ccc(NS(=O)(=O)c2ccccc2)cc1)(C(F)(F)F)C(F)(F)F)c1ccccc1 | -2%

Continuation:
SMILES | VDR inhibitor
Cc1c(NC(=O)/C(C#N)=C/C2CC=CCC2)c(=O)n(-c2ccccc2)n1C (centres undefined) | -24%
COc1ccc(-c2n[nH]c3c2C(c2ccc(OC)c(OC)c2)N(c2ccccc2)C3=O)cc1 (centres undefined) | 2%
Cn1cc(CCNC(=O)CC2C(=O)NCCN2CC(c2ccccc2)c2ccccc2)cn1 (centres undefined) | 4%
O=c1[nH]cnc2ccc([N+](=O)[O-])cc12 | -9%
CCc1ccc2c(COC(=O)C3CC(=O)N(CCc4ccccc4)C3)cc(=O)oc2c1 (centres undefined) | -23%
COc1ccc(N2CCN(C(=O)NC3CC(=O)N(c4ccc(OC)cc4)C3)CC2)cc1 (centres undefined) | 13%
COc1ccc(N(CC(C)C)S(=O)(=O)c2nnc(NC(=O)CC(C)C)s2)cc1 | -6%
COc1ccc(Cl)cc1NC(=O)CCc1nnc2ccc(N3CCN(C)CC3)nn12 | 2%
O=C(CN(c1cccc([N+](=O)[O-])c1)S(=O)(=O)c1ccccc1)NCc1cccnc1 | 3%
Cc1cccc(NC(=O)CCCn2c(=S)[nH]c3ccccc3c2=O)c1 | 21%
Cc1cccc(/C=N/Nc2ccc3ccccc3n2)c1 | -22%
Cc1ccc(CNC(=O)/C=C/c2ccc(S(=O)(=O)N3CCOCC3)cc2)cc1 | -8%
CC(C)N(C)S(=O)(=O)c1ccc(Cl)c(C(=O)O)c1 | -9%
C/C(=N\NC(=O)c1cc(C(C)(C)C)[nH]n1)C12CC3CC(CC(C3)C1)C2 | -29%
CC(OC(=O)c1cc(S(=O)(=O)N(C)c2ccccc2)ccc1Cl)C(=O)Nc1ccc2c(c1)OCCO2 (centres undefined) | 4%
COC(CNC(=O)c1ccc(CS(=O)(=O)c2ccccc2)o1)OC | 0%
CCSc1nnc(NC(=O)[C@@H](NC(=O)c2ccccc2)C(C)C)s1 | -8%
CCCc1nn2c(=O)cc(CSCC(=O)Nc3cccc(C)c3)nc2s1 | 4%

High-throughput results deposited in PubChem BioAssay by National Center for Advancing Translational Sciences (NCATS).

Only part of the results is shown (hit frequency here may not be typical).
